# Vaccinia stage: Vaccinia orthopox stage-specific inhibition. AID 1053133. Vaccinia-infected cells, mCherry/Venus stage reporter fluorescence; stronger effect = lower value; some inactives read as strong as hits. hit rate 0.01% among 89,000. activity change (mCherry), % (test concentration not listed);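 active means mCherry past -33% and 40 or more points under the early reporter, replicates agreeing; inconclusive means past -33% without that gap or agreement; tested in A549 cells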;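 further: scaled between vehicle wells and reference inhibitor wells; 23 nL library stock went into each well; one replicate is shown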
# Vaccinia stage Venus: also measured in Vaccinia stage; calls as there; activity change (Venus), %; measured here: Venus reporter, other viral stage;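 negative = less Venus signal; first of two replicates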
# Numbers without * were called inactive; u = inconclusive; x = no result given; & = joins results of further samples. Not all compounds are listed. The share of hits here may be higher or lower than overall.
(1) COc1ccc(S(=O)(=O)Nc2ccc3c(c2)C(=O)N(C)C[C@@H](OC)[C@H](C)CN(C)[C@H](C)CO3)cc1
(2) Cc1noc(C)c1NC(=O)Nc1ccc2c(c1)CC(=O)N([C@@H](C)CO)C[C@H](C)[C@H](CN(C)C)O2
(3) Cc1ccc(S(=O)(=O)Nc2ccc3c(c2)C(=O)N([C@H](C)CO)C[C@@H](C)[C@@H](CN(C)Cc2ccc(Cl)c(Cl)c2)OCCCC[C@H](C)O3)cc1
(4) C[C@H](CO)N1C[C@H](C)[C@H](CN(C)Cc2ccc(C(=O)Nc3ccccc3N)cc2)Oc2ccc(NC(=O)Nc3ccc(C(F)(F)F)cc3)cc2C1=O
(5) COCC(=O)N1[C@H](CO)[C@H](c2ccccc2C2=CCCCC2)[C@@H]1C#N
(6) CCNC(=O)[C@H]1[C@H](CO)[C@H]2Cn3c(ccc(-c4ccccc4)c3=O)[C@H]2N1Cc1ccccc1
(7) C[C@@H]1CN([C@H](C)CO)C(=O)c2cccc(NC(=O)c3nc4ccccc4s3)c2O[C@H]1CN(C)S(=O)(=O)c1ccc(F)cc1
(8) O=C(C[C@@H]1C[C@@H]2c3cc(NC(=O)NC4CCCC4)ccc3O[C@@H]2[C@H](CO)O1)NCCN1CCCCC1
Assay by compound	1	2	3	4	5	6	7	8
Vaccinia stage	17	12	u	10	-4	-1	-17	9
Vaccinia stage Venus	14	7	x	5	-2	-7	-14	10

(9) CCCNC(=O)N1CC2(CCN(S(=O)(=O)c3ccc(OC)cc3)CC2)c2c(n(C)c3cc(OC)ccc23)[C@@H]1CO
(10) CCNC(=O)C[C@H]1CC[C@@H]2[C@H](COc3ccc(NC(=O)Nc4ccc(F)cc4)cc3C(=O)N2C)O1
(11) OC[C@H]1[C@@H](c2ccc(Br)cc2)[C@H]2CN(Cc3cncnc3)CCCCN21
(12) C[C@@H]1CN([C@@H](C)CO)C(=O)CCCn2nncc2CO[C@H]1CN(C)S(C)(=O)=O
(13) CN1C(=O)c2cc(NS(=O)(=O)CC(F)(F)F)ccc2OC[C@H]2O[C@@H](CC(=O)NCc3ccc(Cl)c(Cl)c3)CC[C@@H]21
(14) C[C@@H]1CN([C@@H](C)CO)S(=O)(=O)c2ccc(C#CC3CC3)cc2O[C@@H]1CN(C)C(=O)CC1CC1
(15) C[C@H](CO)N1C[C@H](C)[C@@H](CN(C)C(=O)C2CCC2)Oc2ncc(C#CC3CCCC3)cc2C1=O
(16) CO[C@H]1CC[C@H]2CCOc3c(C#N)cccc3C(=O)N(C)C[C@@H](c3ccccc3)CC(=O)N(C)C[C@H]1O2
Assay by compound	9	10	11	12	13	14	15	16
Vaccinia stage	-11	21	26	7&6	2	-27	-2	7
Vaccinia stage Venus	-6	17	-7	3&8	-3	-26	0	1

# A few values from the results shown:
# Vaccinia stage, compound 9 : -11
# Vaccinia stage Venus, compound 10 : 17

# The results go on:
(17) C[C@@H]1CN([C@@H](C)CO)C(=O)c2cc(NC(=O)Cn3cnnn3)ccc2O[C@@H]1CN(C)C(=O)Nc1ccccc1
(18) O=C(Cc1ccccn1)N1CC(=O)N2[C@@H](CO)[C@@H](c3ccc(C#CC4CCCCC4)cc3)[C@@H]2C1
(19) O=C(Nc1ccc(F)cc1)N1C[C@@H]2[C@H](c3ccccc31)[C@@H](CO)N2C(=O)c1ccncc1
(20) CS(=O)(=O)N1CC(=O)N2[C@H](C1)[C@@H](c1ccc(C#CCC3CCCC3)cc1)[C@@H]2CO
(21) CN1C(=O)c2cc(NS(C)(=O)=O)ccc2OC[C@H]2O[C@H](CC(=O)NC3CCCCC3)CC[C@@H]21
(22) C[C@@H]1CCCCO[C@H](CN(C)Cc2ccncc2)[C@@H](C)CN([C@H](C)CO)C(=O)c2cc(NS(=O)(=O)c3ccc(F)cc3)ccc2O1
(23) COc1ccc(S(=O)(=O)N(C)C[C@@H]2OCCCC[C@H](C)Oc3ccc(NC(=O)NC4CCCCC4)cc3C(=O)N([C@H](C)CO)C[C@@H]2C)cc1
(24) O=C(C[C@H]1CC[C@@H]2[C@H](COC[C@@H](O)CN2C(=O)Nc2ccc(F)cc2)O1)NCCc1ccccc1
Assay by compound	17	18	19	20	21	22	23	24
Vaccinia stage	7	-21	-8	-29	6	15	-4	-17
Vaccinia stage Venus	-2	-14	9	-17	3	0	0	-14

(25) CCC(=O)Nc1ccc2c(c1)OC[C@@H](C)N(C(=O)NC(C)C)C[C@@H](C)[C@@H](OC)CN(C)C2=O
(26) COc1ccc(CN(C)C[C@H]2Oc3ccc(NC(=O)CCCCCC(=O)Nc4ccccc4N)cc3CC(=O)N([C@@H](C)CO)C[C@H]2C)cc1
(27) CCCC#Cc1cnc2c(c1)C(=O)N([C@@H](C)CO)C[C@@H](C)[C@H](CN(C)C(=O)c1ccc(F)cc1)O2
(28) C[C@@H]1CN([C@@H](C)CO)S(=O)(=O)c2ccc(C3=CCCCC3)cc2O[C@H]1CN(C)C(=O)c1ccncc1
(29) O=C(c1ccncc1)N1C[C@@H]2[C@H](c3ccccc31)[C@H](CO)N2Cc1ccc(F)cc1
(30) C[C@@H]1CN([C@@H](C)CO)C(=O)Cc2cc(NS(=O)(=O)c3ccc(Cl)cc3)ccc2O[C@H]1CN(C)S(=O)(=O)c1ccc(Cl)cc1
(31) CCCNC(=O)C[C@@H]1CC[C@@H]2[C@H](COc3ccc(NS(=O)(=O)CC)cc3C(=O)N2C)O1
(32) COc1cccc(-c2ccc3c(c2)O[C@H](CN(C)C(=O)C2CCC2)[C@H](C)CN([C@H](C)CO)S3(=O)=O)c1
Assay by compound	25	26	27	28	29	30	31	32
Vaccinia stage	-6	-6	0	-3	-2	-28	0	-6
Vaccinia stage Venus	5	-15	-3	-4	9	-19	-3	-10

(33) O=C(NCC[C@@H]1CC[C@@H](NC(=O)c2cnccn2)[C@H](CO)O1)c1ccc2c(c1)OCO2
(34) O=C(C[C@@H]1C=C[C@@H](NC(=O)NC2CCCC2)[C@@H](CO)O1)NCc1ccc(F)cc1
(35) CN1C(=O)c2cc(NC(=O)C3CCCC3)ccc2OC[C@@H]2O[C@H](CC(=O)NCc3ccccc3F)CC[C@@H]21
(36) COc1ccc(S(=O)(=O)N(C)C[C@@H]2Oc3ccc(NC(=O)NC(C)C)cc3CC(=O)N([C@@H](C)CO)C[C@H]2C)cc1
(37) CCNC(=O)C[C@H]1CC[C@@H]2[C@H](COC[C@H](O)CN2C(=O)Nc2ccc(C(F)(F)F)cc2)O1
(38) COC(=O)C[C@H]1CC[C@H]2[C@@H](COc3ccc(NC(=O)NC(C)C)cc3C(=O)N2C)O1
(39) COCC(=O)Nc1ccc2c(c1)[C@@H]1C[C@@H](CC(=O)NCc3ccccc3F)O[C@H](CO)[C@@H]1O2
(40) CS(=O)(=O)Nc1ccc2c(c1)[C@H]1C[C@H](CC(=O)NC3CCCCC3)O[C@@H](CO)[C@H]1O2
Assay by compound	33	34	35	36	37	38	39	40
Vaccinia stage	-3	1	-15	24	-3	1	-7	4
Vaccinia stage Venus	2	0	-24	24	-3	4	-1	-3

(41) CCCC#Cc1ccc([C@@H]2[C@H](CO)N3C(=O)CN(C(=O)Cc4cccnc4)C[C@@H]23)cc1
(42) CN1[C@@H]2Cn3c(ccc(-c4cccc(F)c4)c3=O)[C@H]1[C@@H](C(=O)N1CCOCC1)[C@@H]2CO
(43) C[C@@H]1CN([C@H](C)CO)C(=O)c2cc(NC(=O)CCC(F)(F)F)ccc2O[C@@H]1CN(C)C(=O)NC1CCCCC1
(44) COc1cccc(NC(=O)N(C)C[C@H]2Oc3cc(/C=C/c4ccccc4)ccc3S(=O)(=O)N([C@H](C)CO)C[C@H]2C)c1
(45) C[C@H](CO)N1C[C@H](C)[C@@H](CN(C)Cc2cccnc2)Oc2cc(C3=CCCC3)ccc2S1(=O)=O
(46) C[C@@H]1CN([C@H](C)CO)S(=O)(=O)c2ccc(Br)cc2O[C@H]1CN(C)C(=O)CC1CC1
(47) COCC(=O)N(C)C[C@H]1Oc2ncc(C3=CCCC3)cc2C(=O)N([C@H](C)CO)C[C@@H]1C
(48) Cc1noc(C)c1NC(=O)N(C)C[C@@H]1OCCCC[C@@H](C)Oc2ccc(NC(=O)Nc3ccc(C(F)(F)F)cc3)cc2C(=O)N([C@H](C)CO)C[C@H]1C
Assay by compound	41	42	43	44	45	46	47	48
Vaccinia stage	7	4	3	u	8	10	7	-28
Vaccinia stage Venus	1	3	2	x	0	1	9	-17

(49) CC(C)NC(=O)N[C@@H]1CC[C@H](CC(=O)O)O[C@@H]1CO
(50) CCC(=O)N(C)C[C@H]1Oc2cc(-c3ccccc3C)ccc2S(=O)(=O)N([C@H](C)CO)C[C@H]1C
(51) CCC(=O)N1C[C@H](C)[C@H](OC)CN(C)C(=O)c2ccc(NC(=O)C3CC3)cc2OC[C@H]1C
(52) CNC[C@@H]1Oc2ccc(NS(=O)(=O)c3c(C)noc3C)cc2C(=O)N([C@H](C)CO)C[C@@H]1C
(53) C[C@H]1CN([C@@H](C)CO)C(=O)Cc2cc(NS(=O)(=O)c3ccc(F)cc3)ccc2O[C@@H]1CN(C)Cc1ccc(Oc2ccccc2)cc1
(54) Cc1noc(C)c1S(=O)(=O)N(C)C[C@@H]1Oc2ccc(NC(=O)CCCN(C)C)cc2CC(=O)N([C@@H](C)CO)C[C@H]1C
(55) O=C(C[C@H]1C[C@H]2c3cc(NC(=O)Nc4ccc(C(F)(F)F)cc4)ccc3O[C@H]2[C@@H](CO)O1)NCC1CC1
(56) C[C@@H]1CCCCO[C@H](CN(C)C(=O)Nc2ccccc2)[C@H](C)CN([C@@H](C)CO)C(=O)c2cc(NC(=O)C3CCCCC3)ccc2O1
Assay by compound	49	50	51	52	53	54	55	56
Vaccinia stage	-6	-13	4	37	u	14	-6	-9
Vaccinia stage Venus	1	-4	3	10	x	21	-5	-20

(57) O=C(C1CCCC1)N1CCCCN2[C@@H](CO)[C@H](c3ccc(C#CC4(O)CCCC4)cc3)[C@@H]2C1
(58) Cc1ccc(S(=O)(=O)Nc2ccc3c(c2)C(=O)N([C@H](C)CO)C[C@H](C)[C@H](CN(C)S(=O)(=O)c2ccccc2)O3)cc1
(59) CC(C)(C)[S@@](=O)N1Cc2cc(C(=O)N3CCCCC3)nc(-c3cccc(-c4ccc(F)cc4)c3)c2[C@H]1CCO
(60) CC(C)NC(=O)Nc1cccc2c1O[C@H](CN(C)C(=O)NC1CCCCC1)[C@@H](C)CN([C@@H](C)CO)C2=O
(61) CCC(=O)Nc1ccc2c(c1)OC[C@@H](C)N(C(=O)CN1CCOCC1)C[C@H](C)[C@@H](OC)CN(C)C2=O
(62) C[C@@H]1CN([C@@H](C)CO)C(=O)c2cccc(NC(=O)c3cnccn3)c2O[C@@H]1CN(C)Cc1ccc(C(F)(F)F)cc1
(63) C[C@@H]1CN([C@H](C)CO)C(=O)c2cc(NC(=O)Nc3ccc(F)cc3)ccc2O[C@H]1CN(C)C(=O)Nc1ccccc1
(64) C[C@@H]1CN([C@H](C)CO)C(=O)c2cc(NS(=O)(=O)c3ccc(Cl)cc3)ccc2O[C@@H]1CN(C)S(=O)(=O)c1cn(C)cn1
Assay by compound	57	58	59	60	61	62	63	64
Vaccinia stage	-14	4	u	13	2	19	4	22
Vaccinia stage Venus	-15	13	x	2	3	7	5	16

# Of the compounds above, these contain an aryl methoxy group:
(1) COc1ccc(S(=O)(=O)Nc2ccc3c(c2)C(=O)N(C)C[C@@H](OC)[C@H](C)CN(C)[C@H](C)CO3)cc1
(9) CCCNC(=O)N1CC2(CCN(S(=O)(=O)c3ccc(OC)cc3)CC2)c2c(n(C)c3cc(OC)ccc23)[C@@H]1CO
(23) COc1ccc(S(=O)(=O)N(C)C[C@@H]2OCCCC[C@H](C)Oc3ccc(NC(=O)NC4CCCCC4)cc3C(=O)N([C@H](C)CO)C[C@@H]2C)cc1
(26) COc1ccc(CN(C)C[C@H]2Oc3ccc(NC(=O)CCCCCC(=O)Nc4ccccc4N)cc3CC(=O)N([C@@H](C)CO)C[C@H]2C)cc1
(32) COc1cccc(-c2ccc3c(c2)O[C@H](CN(C)C(=O)C2CCC2)[C@H](C)CN([C@H](C)CO)S3(=O)=O)c1
(36) COc1ccc(S(=O)(=O)N(C)C[C@@H]2Oc3ccc(NC(=O)NC(C)C)cc3CC(=O)N([C@@H](C)CO)C[C@H]2C)cc1
(44) COc1cccc(NC(=O)N(C)C[C@H]2Oc3cc(/C=C/c4ccccc4)ccc3S(=O)(=O)N([C@H](C)CO)C[C@H]2C)c1
Assay by compound	1	9	23	26	32	36	44
Vaccinia stage	17	-11	-4	-6	-6	24	u
Vaccinia stage Venus	14	-6	0	-15	-10	24	x

# Screening results deposited in PubChem BioAssay by Broad Institute.
